H5N1 CPE: antiviral screen in MDCK cells, H5N1 avian flu; cytopathic effect, luminescence, 72 h; hits give high values; no value below 0 was filed and about half of the inactive calls have no number; reference of the scale not given here; inhibition, % at 50 µM; actives 0.07% (n = 96,000); AID 740; in the data active means inhibition above about 25%
An asterisk follows results filed as active; i = inactive. Not all compounds are listed; count on the stated rates, not on these rows.

SMILES | H5N1 CPE
O=C(CN(Cc1ccc(F)cc1)C(=O)Cn1nnc2ccccc21)NCC1CCCO1 (stereo not drawn) | i
COc1ccc(S(=O)(=O)N2CCCC(C(=O)NC3CCCCC3)C2)cc1 (stereo not drawn) | 0.5
CCOC(=O)c1c(CN2CCCCC2)n(C)c2cc(Br)c(O)c(CN(C)C)c12 | 1.6
O=C(Nc1ccccc1NC(=O)NC1CCCCC1)NC1CCCCC1 | i
COc1ccc(C(C)(C)C)cc1NC(=O)Nc1ccc2c(c1)OCO2 | i
Cc1ccc(-c2c3c([nH]c(=S)c2C#N)CCCC3)o1 | 0.3
Cc1ccc(S(=O)(=O)/N=C2\C(=O)c3ccccc3C([O-])=C2n2cc[n+](CCC(C)C)c2)cc1 | i
COc1ccc(CCNC(=O)C2CC(c3ccccc3[N+](=O)[O-])=NO2)cc1 (stereo not drawn) | 1.1
CCc1ccccc1S(=O)(=O)Cc1ccc(C(=O)NCc2ccc3c(c2)OCO3)o1 | 0.0
CC(C)=CCC/C(C)=C/CC(C)(C)CNCCN1CCNCC1 | i
c1ccc(-c2oc3ncnc(NCCCn4ccnc4)c3c2-c2ccccc2)cc1 | i
CCN(CC)P(=O)(/C(Cl)=C\Nc1c(C)n(C)n(-c2ccccc2)c1=O)N(CC)CC | i
Cc1cc2cc(CN(Cc3nnnn3C3CCCCC3)CC3CCCO3)c(=O)[nH]c2cc1C (stereo not drawn) | 0.3
CC1=CC(C)(C)N(C(=O)CSc2nccn2C)c2cc(C)ccc21 | 0.3
CCn1c(-c2ccccc2Cl)nn(CC(=O)Nc2ccc(OC)cc2)c1=S | i

3 compounds drawn at random from the list so far:
SMILES | H5N1 CPE
COc1ccc(C(C)(C)C)cc1NC(=O)Nc1ccc2c(c1)OCO2 | i
CCc1ccccc1S(=O)(=O)Cc1ccc(C(=O)NCc2ccc3c(c2)OCO3)o1 | 0.0
CC(C)=CCC/C(C)=C/CC(C)(C)CNCCN1CCNCC1 | i

Next part:
SMILES | H5N1 CPE
O=C(Cn1c(=O)n(-c2ccc(F)cc2)c(=O)c2sccc21)N1CCCC1 | i
CCCCCn1c(=O)c(C(=O)NCc2ccncc2)c(O)c2ccccc21 | 1.9
CCn1c(SCC(=O)c2ccc3c(c2)OCCO3)nnc1-c1ccco1 | 1.2
Cc1nn(-c2ccccc2)c(Cl)c1C(=O)OC(C)C(=O)NC(=O)NC1CCCCC1 (stereo not drawn) | i
COC(Cc1n[nH]c(=S)n1-c1ccccc1)OC | 1.1
COc1ccc(-c2nnc(SCC(=O)Nc3sc4c(c3C#N)CCC4)n2CC2CCCO2)cc1 (stereo not drawn) | 1.1
COc1cc(C2C(C#N)=C(N)Oc3cc(C)n(CC4CCCO4)c(=O)c32)cc2c1OCO2 (stereo not drawn) | i
CCCCNC(=O)N1CCOCCOCCN(C(=O)NCCCC)CCOCC1 | i
O=C(CC1Oc2ccccc2NC1=O)NCCc1ccccc1 (stereo not drawn) | i
COc1ccc(OCCC(=O)OCC(=O)NC(=O)NC(C)(C)C)cc1 | i
Nc1nnc(-c2ccccc2Cl)s1 | 0.3
CC(=O)Nc1cccc(NC(=O)CSc2ncc(-c3ccc(Cl)cc3)n2Cc2ccco2)c1 | 5.9
O=c1/c(=C\c2ccc3c(c2)OCO3)sc2n1CCCN=2 | i
CCOC(=O)N1CCC(N2C(=O)c3ccccc3C2Nc2ccccc2)CC1 (stereo not drawn) | 0.4
CCC(=O)Nc1nonc1-c1nc2ccccc2n1Cc1ccccc1 | 1.0
COc1ccccc1-c1cn(S(=O)(=O)c2ccc(C)cc2)nc1N | 0.8
CCOC(=O)N1CCN(C(=O)c2cc3c(=O)[nH]c4ccccc4c3s2)CC1 | i
CCCCCCN=C(CC)c1c(O)n(CCCC)c(=O)[nH]c1=O | 0.9
CN1CCN(/C=N/c2c(C#N)cnn2C)CC1 | 0.0
Cc1cc(C(=O)N2CCCCCC2)cs1 | 0.3
O=C(c1cccs1)N1CCN(C/C=C/c2ccccc2)CC1 | i
Cc1ccc(C2=N/C(=C\N(C)C)C(=O)O2)cc1 | i
Fc1ccccc1OCCSc1nnnn1-c1ccccc1 | i
O=C(CCC1N=C2c3ccccc3N=C(SCc3ccccc3Cl)N2C1=O)NCc1ccco1 (stereo not drawn) | 3.4
O=C1N(c2ccccc2)C2CS(=O)(=O)CC2N1c1ccc(Br)cc1 (stereo not drawn) | i
Cc1ccccc1NC(=O)c1sc(Cl)nc1-c1ccccc1 | 0.2
C=CCNc1nc2c3ccccc3n(C(C)=O)c2s1 | i
Cc1onc(-c2c(F)cccc2Cl)c1C(=O)OCC(=O)NC(c1ccccc1)c1ccccc1 | i
CC(=O)c1cc2c(cc1NC(=O)CSc1nc3ccccc3o1)OCO2 | 1.0
Cn1c(NC(=O)COc2ccccc2)cc(=O)n(C)c1=O | 0.2

Brought forward from above: 7 entries, followed by the next part.
SMILES | H5N1 CPE
O=C(CCC1N=C2c3ccccc3N=C(SCc3ccccc3Cl)N2C1=O)NCc1ccco1 (stereo not drawn) | 3.4
O=C1N(c2ccccc2)C2CS(=O)(=O)CC2N1c1ccc(Br)cc1 (stereo not drawn) | i
Cc1ccccc1NC(=O)c1sc(Cl)nc1-c1ccccc1 | 0.2
C=CCNc1nc2c3ccccc3n(C(C)=O)c2s1 | i
Cc1onc(-c2c(F)cccc2Cl)c1C(=O)OCC(=O)NC(c1ccccc1)c1ccccc1 | i
CC(=O)c1cc2c(cc1NC(=O)CSc1nc3ccccc3o1)OCO2 | 1.0
Cn1c(NC(=O)COc2ccccc2)cc(=O)n(C)c1=O | 0.2
C=CCN1C(=O)C(O)(CC(=O)c2ccc(OC)cc2OC)c2cc(Br)ccc21 (stereo not drawn) | 0.5
O=C(O)C1CC(=O)N(Cc2cccnc2)C1 (stereo not drawn) | i
COC(=O)c1[nH]c2ccccc2c1NC(=O)CCN1CCN(C2CCCCC2)CC1 | 1.8
CCCOc1ccc(OC(=O)c2ccc(Br)o2)cc1 | i
O=C(NC1CCCCCC1)C1c2ccccc2C(=O)N1Cc1cccnc1 (stereo not drawn) | i
COc1ccc(C(=O)Nc2ccccc2C(=O)NC(C(=O)NCc2ccco2)C(C)C)cc1 (stereo not drawn) | i
Cc1cccc(S(=O)(=O)C(C#N)c2nc3ccccc3nc2N2CCCC2)c1 (stereo not drawn) | 0.5
O=C(NCc1cn2ccccc2n1)c1ccc(Br)o1 | 0.7
CC(Oc1ccccc1)c1ccnn1S(C)(=O)=O (stereo not drawn) | 0.5
O=C1CN(c2ccccc2F)C(=O)CN1c1ccccc1F | 0.3
CCC(=O)Nc1ccc2c(c1)OCCO2 | i
O=C(O)C1C2C=CC(C2)C1C(=O)NCCCN1CCOCC1 (stereo not drawn) | 0.2
O=C(O)C(Cc1ccccc1)N1C(=O)c2ccccc2C1=O (stereo not drawn) | i
COCCCNC(=O)CCCC(=O)NCCCOC | i
O=S(=O)(c1cccc2nsnc12)N1CCc2ccccc2C1 | 2.5
Cc1cc(C)cc(NS(=O)(=O)c2ccc(Oc3ncc(C(F)(F)F)cc3Cl)cc2)c1 | 0.7
O=C1CCCC2=C1C(Cc1ccccc1)C1=C(CCCC1=O)O2 | 0.4
O=C(CCN1CCc2ccccc2C1)c1ccc2c(c1)OCCO2 | i
COC(=O)[C@H](Cc1ccccc1)NC(=O)NCCc1ccc(S(N)(=O)=O)cc1 | 0.9
CCN1CCN(Cc2coc3ccc(C)cc3c2=O)CC1 | 0.6
O=C1CCCN1c1ccc(S(=O)(=O)NCCc2ccc(Cl)cc2)cc1 | i
CCCNC(=O)Nc1ccc2c(c1)N(C)C(=O)c1ccccc1S2 | i
CC(Sc1nnc(-c2cccs2)n1Cc1ccccc1)C(=O)NCc1ccc2c(c1)OCO2 (stereo not drawn) | 0.5
Cc1ccccc1NS(=O)(=O)c1cc(C(=O)Nc2ccccc2-c2ccccc2)ccc1Cl | i
CCC(=NCc1ccco1)c1c(O)n(Cc2ccccc2)c(=O)[nH]c1=O | 0.4
CCOC(=O)c1cnn(-c2c(Cc3ccccc3)c(C)nc3c(-c4ccccc4)c(C)nn23)c1N | i
CCN(CC)S(=O)(=O)c1ccc2oc(SCC(=O)NCc3ccccc3)nc2c1 | 0.7
CCOC(=O)c1cnc(-c2ccccc2)nc1Oc1ccc(Cl)c(Cl)c1 | i
CC(C)(C)c1cc2cccnc2n1Cc1ccccc1 | i
O=C(Nc1ccc2c(c1)OCO2)C(c1ccc(Cl)cc1)N1CCN(C(=O)c2ccco2)CC1 (stereo not drawn) | 0.7

Quoted from the listing:
H5N1 CPE with CCN1CCN(Cc2coc3ccc(C)cc3c2=O)CC1 stands at 0.6
H5N1 CPE with CC(Sc1nnc(-c2cccs2)n1Cc1ccccc1)C(=O)NCc1ccc2c(c1)OCO2 (stereo not drawn) stands at 0.5

New compounds follow:
SMILES | H5N1 CPE
COc1ccc(CCn2c(C)cc(C(=O)CSc3nnc(N)s3)c2C)cc1 | i
Cc1ccc(N(CC(=O)NCc2ccncc2)S(C)(=O)=O)cc1Cl | i
Cc1cc(Oc2ccccc2)nc2ccc(O)cc12 | i
C(=N\Nc1nc(Nc2ccccc2)nc(N2CCOCC2)n1)/c1c[nH]c2ccccc12 | 0.2
O=C(CSc1nccn1-c1ccccc1)NCc1ccc2c(c1)OCO2 | 1.3
Nc1c(C(=O)NCCN2CCOCC2)c2nc3ccccc3nc2n1CCc1ccccc1F | i
Cc1cc2cc(OCC(=O)O)ccc2n1C | i
CCOc1c(Br)ccc2c1sc1nc[nH]c(=O)c12 | i
CCOc1ccc(-c2cc(CCCC(=O)NCc3ccc(C)cc3)no2)cc1 | i
CC1=CC(C)(C)NC(=S)N1c1cccc(C)c1 | 0.8
COc1ccccc1/C=N/NC(=Nc1ccc(C)cc1)c1nc2ccccc2s1 | i
O=C(O)c1ccccc1S(=O)(=O)NCC(O)COc1ccc(Br)cc1 (stereo not drawn) | 1.2
O=C(CN1CCCN(Cc2ccc(F)cc2Cl)C1=O)NC1CCCCCC1 | i
O=C(NC1CCCCC1)C(c1ccc2ncccc2c1)N(Cc1ccc(F)cc1)C(=O)c1ccc2c(c1)OCCO2 (stereo not drawn) | i
CC1(C)CC(=O)C2=C(C1)NC(=O)CC2C(=O)NCc1ccc(F)cc1 (stereo not drawn) | i
CCC1Sc2ccccc2N(CC(=O)NCc2ccccc2OC)C1=O (stereo not drawn) | 1.3
C=CCn1c(=N)c(C(=O)NCCCOC)cc2c(=O)n3cccc(C)c3nc21 | 1.8
COC(=O)c1ccc2c(c1)N(C)CCS2 | i
CCN(CC)Cc1cc(CCNC(=O)c2ccc(Cl)cc2)ccc1O | i
S=C(NCc1ccco1)N1CCN(Cc2ccc(Cl)cc2Cl)CC1 | i
CCOC(=O)c1cc2c(ccn2C)n1CC(=O)N1CCN(c2ccc(F)cc2)CC1 | i
CC(=O)c1cccc(NC(=O)N2CCCC2C(=O)Nc2ccccc2C)c1 (stereo not drawn) | 0.1
COc1ccc(N(C2CSC2)S(=O)(=O)c2ccccc2)cc1 | 0.8
COCCCNC(=O)CS(=O)(=O)Cc1nc(-c2ccccc2C)oc1C | i
COc1ccc(NC(=O)c2cccnc2Nc2ccc(OC)cc2)cc1 | i
Cn1cccc1Cc1nnc(SCC(=O)Nc2ccc(F)cc2)n1-c1ccc(F)cc1 | i
CN(C)S(=O)(=O)c1cccc(C(=O)N2CCc3ccccc32)c1 | 0.8
Cc1cc(NC(=O)COC(=O)[C@H](Cc2c[nH]c3ccccc23)NC(=O)c2ccc(F)cc2)no1 | i
COC(=O)C1=C(C)N(Cc2cccnc2)C(=O)C1 | i
Cc1noc(C)c1CSc1ccccc1C(=O)N1CCN(c2ccccc2)CC1 | 5.0
CC(=O)c1cc(-c2nc3ccccc3n2C)n(C)c1 | 2.8
Cc1ccc(OC(C)C(=O)N2CCc3ccccc32)cc1 (stereo not drawn) | 0.5
O=C(O)[C@@H](c1ccccc1)N1Cc2ccccc2C1=O | 2.1
O=C(O/N=C\c1ccc(N2CCCCC2)c([N+](=O)[O-])c1)c1cccc(C(F)(F)F)c1 | 0.4
Cn1c(=O)n(CC(N)=O)c2ccccc21 | i
COc1ccc(Nc2nc(C)c3ccccc3n2)cc1 | i
COc1ccc(N(C(=O)c2cccc([N+](=O)[O-])c2)S(=O)(=O)c2ccc3c(c2)n(C)c(=O)n3C)cc1 | 0.1
COC(=O)C(NC(=O)C(CC(C)C)NC(=O)C1CCC(C)CC1)C(C)C (stereo not drawn) | i
COc1ccc(CC(=O)Nc2nnc(C)s2)cc1 | i
COc1cccc(N(CC(=O)Nc2ccc3c(c2)OCO3)S(=O)(=O)c2ccccc2)c1 | 0.5
O=C(COC(=O)C12CC3CC(CC(C3)C1)C2)Nc1ncc(Cl)cc1Cl | i
S=c1sc2c(N3CCOCC3)ncnc2n1-c1ccccc1 | i
Cc1cccc(OC(=O)c2cn(C)nc2C(F)(F)F)c1C | i
COC(=O)Cn1c2ccc(OC)cc2c2nc3ccccc3nc21 | 0.2
O=C(O)c1ccc(C2CCCCC2)cn1 | i
COC(=O)c1ccc(CSc2nc(C(F)(F)F)c3c(c2C#N)CCC3)o1 | 1.2
CN(CCCNC(=O)c1cn(C)c2ccc(S(=O)(=O)N(C)C)cc2c1=O)c1ccccc1 | 0.8
COc1ccc(C2=NOC(C(=O)N3CCCCCC3)C2)cc1OC (stereo not drawn) | i
CC(=O)c1cccc(NC(=O)C2CCCC2)c1 | i
Cc1ccccc1NC(=O)Cc1nnc(SCc2ccc(Cl)c(Cl)c2)n1C | 0.5
CCN1CCCC1CNC(=O)C1CCN(Cc2nc(-c3cccc(Br)c3)oc2C)CC1 (stereo not drawn) | i
O=C(Nc1ccc2c(c1)OCO2)C1CCN(S(=O)(=O)c2ccc3c(c2)OCCO3)CC1 | 1.3
CN(C)CCNC(=O)C12CC3(C)CC(C)(CC(C)(C3)C1)C2 | 0.5
CN=c1scc(C)n1/N=C/c1ccc(O)cc1O | i
CCCCOC(=O)C1=C(C)Nc2ncnn2C1c1cc(OC)ccc1OC (stereo not drawn) | 2.0
COc1cc(/C=N/NC(=O)c2cccc([N+](=O)[O-])c2)ccc1OCc1ccc(C)cc1 | 0.7

From PubChem
